# bCat nuc transl = modulators of beta-catenin nuclear translocation, primary screen, imaging, HeLa cells, immunofluorescence, high-content; nuclear translocation activity, % at 5 µM; actives 0.3% (n = 190,000);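 active = nuclear translocation activity above 50% at 5 µM, with a well cell count of 50 or more; inconclusive = wells under 50 cells across six images, flagged as toxic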;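 also: per-cell ratio of nuclear to cytoplasmic median beta-catenin stain intensity; plate controls were DMSO negative control for no effect and GSK-3 inhibitor IX positive control for full effect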
#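 Signal – beta-catenin immunofluorescence imaging with DAPI · Test system – human HeLa cell line · Dosing – 5 µM primary single dose, 0.1% DMSO, 0.02–20 µM confirmation series · Measure – % activation, nuclear-to-cytoplasmic median beta-catenin signal ratio per cell · Incubation – 24 h compound exposure at 37°C, 5% CO2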
# Yfh1-off respiration = enhancers of respiration in Yfh1-depleted yeast, dose response, Friedreich's ataxia, plus single-dose screen (AID 1465); actives 0.074% (n = 220,000); S. cerevisiae Yfh1-off respiration, WST-1 reduction, 72 h; higher fold induction means a stronger effect; fold induction at 50 µM; hits with a dose series show EC50 in µM;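 active = fold induction of absorbance versus untreated yeast above a set limit, then at least 30% activation at any dose in follow-up; inconclusive = repeats straddling the limit, or above it without dose testing; inactive = fold induction below the set limit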;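 also: activators that raise dye reduction in frataxin-depleted yeast; strong numbers were not always called active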
# Autophagy mod = autophagy modulators in MEF cells, primary screen, imaging, high-content, MEF GFP-LC3; actives 0.98% (n = 190,000); MEF GFP-LC3 puncta imaging; test concentration mostly 10 µM; calls only at 10 µM (by protocol); AID 463193, 2010;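 active = percentage of spot-positive cells more than 3 SD above its plate mean, without a fluorescence outlier flag or 80% toxicity; inconclusive = no clear call, values can overlap the other calls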;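 also: spot-positive cell cutoff set from DMSO-treated cells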
# Dynein transport = inhibitors of GR-EGFP nuclear translocation, primary screen, dynein cargo transport inhibitor project, imaging, high-content, 3617.4 mouse cells | test concentration mostly 20 µM; stimulated with dexamethasone, 1 µM; hits give low values | AID 1381, 2008 | actives 0.47% (n = 220,000) | z-score, hits read low;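 active = plate z-score of nuclear minus cytoplasmic receptor signal below a set negative limit, without overly bright fluorescence or cell loss, cut at about -3.5 in these data, passing the limit was not always enough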;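 also: z-score of nuclear minus cytoplasmic ring GR-EGFP intensity difference per well; some compounds called inactive have numbers as strong as hits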
#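 Also added – dexamethasone, 1.0 µM final · Buffer or medium – tet-free, stripped-serum medium · Schedule – induction 48 h, compound 1 h, agonist 30 min · Detection – formaldehyde fixation, Hoechst nuclear stain, 10x automated fluorescence imaging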
# P. falciparum M17LAP = P. falciparum M17LAP inhibitors, primary screen, biochemical, fluorogenic H-Leu-NHMec substrate, 1536-well (AID 1619) | recombinant M17LAP, H-Leu-NHMec fluorogenic kinetic assay; higher % means a stronger effect | inhibition, % at 30 µM, or IC50 in µM where a hit was titrated | actives 0.38% (n = 220,000);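 active = compound inhibiting the enzyme by more than half at any dose during confirmatory dose-response retesting; inconclusive = strong single-dose inhibitors picked by rank but not retested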;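 also: plate controls were full reaction with DMSO carrier for no effect and no enzyme background for full effect; strong numbers were not always called active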
# MT stabilize HCS = microtubule stabilizers in HeLa cells, primary screen, imaging, high-content imaging; actives 0.83% (n = 200,000); HeLa tubulin immunostaining HCS, 24 h; share of cells brighter than vehicle mean+2SD; % tubulin-high responders, % at 10 µM;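 active = plate Z-score above 3 for both tubulin-high and condensed-nucleus cell shares, with cell loss under 80%, at 10 µM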;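 also: anti alpha tubulin signal scored within the nucleus-defined area of each cell; some results filed as inactive read as strong as hits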
# Ins promoter up = insulin promoter activators in MIN6 cells, imaging, high-content screening, mouse beta cells | MIN6 insulin promoter-GFP reporter; hits give high values | z-score at 5 µM | actives 0.3% (n = 190,000) | AID 1625, 2009;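 active = z-score above 3 at 5 µM with at least 500 cells counted in the well; inconclusive = wells under 500 cells, flagged as cytotoxic or low count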
# Dynein transport cytoplasmic EGFP = recorded beside Dynein transport, whose call it bears; z-score; measured here: cytoplasmic GR-EGFP intensity; hits give high values
# Dynein transport nuclear GR-EGFP = second read-out of Dynein transport, no call of its own (marks repeat the call); z-score; measured here: nuclear GR-EGFP intensity;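 lower value marks the stronger effect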
# Dynein transport cell count = second read-out of Dynein transport, no call of its own (marks repeat the call); z-score; measured here: cell count per field
# Ins promoter up cell count = also measured in Ins promoter up; calls as there; cell count; measured here: cytotoxicity, nuclei count;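 total cells summed across four imaged fields per well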
# bCat nuc transl cell count 5 µM = also measured in bCat nuc transl; calls as there; cell count; measured here: cell count, cytotoxicity flag
# MT stabilize HCS Hoechst-high % = also measured in MT stabilize HCS; calls as there; % Hoechst-high responders; measured here: nuclear condensation Hoechst responders;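 share of cells brighter than vehicle mean plus two SD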
# MT stabilize HCS cytotoxicity % = also measured in MT stabilize HCS; calls as there; toxicity, %; measured here: cytotoxicity by cell density;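 0% = mean cell density of plate MIN control wells and 100% = no cells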
# Autophagy mod cell loss 18 h = also measured in Autophagy mod; calls as there; toxicity, %; measured here: cell loss, nuclei count;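 cell loss after 18 h compound exposure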
# The depositor's hits bear a star; i = inactive; ? = inconclusive; nt = not tested or not shown; + = active, no number. Some of the compounds tested (hit frequency here may not be typical).
SMILES,bCat nuc transl,bCat nuc transl cell count 5 µM,Yfh1-off respiration,Autophagy mod,Autophagy mod cell loss 18 h,Dynein transport,Dynein transport cytoplasmic EGFP,Dynein transport nuclear GR-EGFP,Dynein transport cell count,P. falciparum M17LAP,MT stabilize HCS,MT stabilize HCS Hoechst-high %,MT stabilize HCS cytotoxicity %,Ins promoter up,Ins promoter up cell count
C/C(Cl)=C\Cn1c(O)c(N=NC(N)=S)c2ccccc21,-1.5,1129,i,i,0,-0.41,-0.33,-0.3,0.17,11%,3.0,2.0,2.3,-0.46,1417
O=c1c(C(c2ccccc2)c2c(O)sc3ccccc3c2=O)c(O)sc2ccccc12,nt,nt,nt,i,0,-0.41,-0.13,-0.38,-0.85,14%,2.9,2.5,3.4,nt,nt
CCN1/C(=C/c2ccc3cccc(C)c3[n+]2CC)Sc2ccccc21,nt,nt,i,+,29*,-2.2,18,1.5,0.38,12%,7.1,1.4,28,nt,nt
Fc1ccc(NC(=S)N2CCCN(c3ccc(C(F)(F)F)cn3)CC2)c(F)c1,0.5,1137,i,nt,nt,-0.57,-0.22,-0.32,-0.042,-8%,nt,nt,nt,-0.8,1204
COc1cc(/C=C2\COC/C(=C\c3cc(OC)c(OC)c(OC)c3)C2=O)cc(OC)c1OC,-0.6,1041,i,nt,nt,-6.6*,1.3*,-2.7*,-0.37*,2%,nt,nt,nt,-2.3,519
Cc1cc(C(=O)N/N=C/c2cc(Br)cc(Br)c2OC(=O)c2cccc(F)c2)n[nH]1,1.3,1100,i,i,27,0.48,-0.29,0.15,-0.28,-4%,2.7,1.4,21,-1.8,986
CCN1/C(=C/c2ccc3cc(C)ccc3[n+]2CC)Sc2cc(C)c(C)cc21,3.9,943,i,+,12*,-0.41,38,5.2,0.95,17%,15,1.5,16,?,nt
Cc1nc(SCC(=O)N2CCc3ccccc3C2)c2c(C)c(C)sc2n1,-1.4,1093,i,i,1,-0.23,-0.24,-0.41,0.46,14%,1.8,2.3,8.8,0.15,1753
C[n+]1c2n(c3ccccc31)N=C(c1cc(C(C)(C)C)c(O)c(C(C)(C)C)c1)CS2,0.7,1124,i,i,8,-0.14,-0.14,-0.084,0.081,40%,5.3,1.1,14,?,nt
O=C(Nc1ccc(Cl)c(Cl)c1)Nc1ccccc1NS(=O)(=O)c1cccs1,-0.5,987,i,i,0,-0.45,-0.24,-0.5,0.76,-2%,2.4,3.9,4.7,nt,nt
O=C(c1cccc(F)c1)N1C2C=CC(C2)C1(C(F)(F)F)C(F)(F)F (centres undefined),nt,nt,i,i,8,-0.027,-0.21,0.36,-1.5,-2%,4.8,3.3,12,nt,nt
Cn1cc(C(=O)CCl)c2ccccc21,1.9,849,?,i,7,-4.8*,1.1*,-2.3*,0.46*,4%,1.1,1.0,11,-1.9,1115
CCCOc1cccc(-c2cc(-c3n[nH]c(=S)n3CC)c3ccccc3n2)c1,nt,nt,i,i,17,0.23,-0.21,-0.036,-0.71,-14%,3.2,2.4,12,nt,nt
CCC(C)N(CC(=O)Nc1cccc(C)c1C)C(=O)CCl (centres undefined),7.0,630,i,+,6.7*,-3.3,0.47,-1.6,0.31,-3%,18,13,41,0.22,1014
C/C(=N\NC(=O)Cc1ccc(Cl)cc1)c1ccccn1,nt,nt,nt,i,75,0.98,-0.21,0.73,0.51,17%,1.1,0.7,11,nt,nt
Cc1ccc(C(=O)Nc2ccccc2Oc2ccccc2)cc1[N+](=O)[O-],nt,nt,nt,i,-1,-1.4,5.5,0.25,-0.22,-6%,3.6,1.4,2.6,nt,nt
Cc1ccccc1NC(=O)/C=C/c1ccc([N+](=O)[O-])s1,3.4,1041,i,+,60*,1.9,1.8,1.8,0.5,-1%,5.6,2.3,5.3,?,nt
O=C(NC1CCCCC1)N1CCN(c2nc(-c3ccccc3)cs2)CC1,1.5,1534,i,i,0,-0.79,-0.38,-0.53,1.6,0%,2.5,2.0,10.0,0.89,1382
Cc1ccc2c(c1)N(CCC(=O)NCc1ccc3c(c1)OCO3)C(=O)CO2,nt,nt,i,i,-11,0.023,-0.21,-0.021,0.31,6%,1.4,1.9,9.4,nt,nt
CSCc1nnc(NC(=O)c2ccc(S(=O)(=O)N(CC(C)C)CC(C)C)cc2)o1,5.0,1254,nt,i,-3,0.84,-0.28,0.41,-0.41,-5%,3.1,3.2,1.3,0.24,1316
N#C/C(=C\c1ccc(O)c([N+](=O)[O-])c1)c1nc2ccccc2s1,2.9,990,i,i,3,0.11,-0.08,0.14,-0.34,29%,3.5,2.5,8.7,-0.61,1463
CCOC(=O)c1cccc2c1-c1ccccc1/C2=N/O,-1.1,1267,i,i,17,-0.68,-0.17,-0.058,-0.37,4%,4.2,2.9,0.9,0.46,1496
Cc1cc(C(=O)N/N=C/c2cc(Br)ccc2OC(=O)c2ccccc2)n[nH]1,1.1,1014,nt,i,17,-0.62,-0.21,-0.5,1.8,1%,4.4,1.5,1.4,-0.58,1832
C/C(=N\NC(=O)c1ccc(-c2ccccc2)cc1)C1C(=O)c2ccccc2C1=O,3.2,936,i,i,-1,1.8,-0.18,1.5,-1.7,-5%,6.3,3.3,2.6,0.23,1529
CCOC(=O)c1cnc2c(N=Nc3cccc(Cl)c3)c(N)nn2c1N,nt,nt,i,i,-7,-0.37,-0.19,-0.79,0.89,9%,3.5,1.4,8.7,nt,nt
COc1ccc(-c2c[n+]3c(n2-c2ccc(C)cc2)CCCCC3)cc1,1.5,1217,i,nt,nt,0.87,-0.22,0.017,-1.2,-6%,nt,nt,nt,?,nt
COc1ccc(S(=O)(=O)N2CCCN(CC(=O)Nc3ccc4c(c3)OCO4)CC2)cc1,nt,nt,nt,i,14,4,-0.12,3.9,-2.4,8%,3.4,1.0,2.6,nt,nt
O=C(NC(Nc1nc2ccc([N+](=O)[O-])cc2s1)(C(F)(F)F)C(F)(F)F)c1ccccc1Cl,8.4,652,i,i,16,-0.5,-0.14,-0.38,-0.41,12%,3.1,1.3,16,?,nt
CC1CCCCN1c1ncnc(N)c1[N+](=O)[O-] (centres undefined),1.5,1054,i,i,20,-0.085,-0.2,0.03,0.057,26%,2.3,3.2,0.2,0.47,1185
O=S(=O)(c1cccs1)N1CN(Cc2ccc(Cl)cc2)c2nc3ccccc3nc21,nt,nt,i,i,23,-0.16,-0.18,-0.2,-0.12,-7%,2.5,2.1,5.4,nt,nt
CC(=O)c1c(C)[nH]c(C(=O)OCC(=O)Nc2sc3c(c2C#N)CCCC3)c1C,nt,nt,i,i,-7,-0.74,-0.22,-0.15,0.044,14%,2.5,2.9,14,-0.44,879
CCNC(=S)NNC(=O)c1cccs1,nt,nt,i,i,3,-0.73,1.1,-0.54,-0.52,16%,2.4,2.0,6.6,nt,nt
N=C1SCC(=O)N1c1ncc(Cc2cccc(Cl)c2)s1,0.7,1525,i,i,2,-0.85,-0.22,-0.54,0.67,4%,2.5,1.7,10,nt,nt
COC(=O)c1ccc2c(=O)[nH]c(CCl)nc2c1,-2.7,1120,i,i,16,-1.5,-0.083,-0.65,1.4,-4%,1.5,1.5,2.1,-0.04,1196
COc1ccc(CCNC(=O)c2cc(-c3cc(Cl)cc(Cl)c3)oc2C)cc1,nt,nt,i,i,8,-0.087,-0.25,-0.59,1.6,-4%,1.6,1.9,13,nt,nt
CCOC(=O)c1c(N2C(=O)Nc3cc(Cl)c(Cl)cc3N2O)sc2c1CCCCC2,nt,nt,i,i,-1,-0.53,-0.21,-0.84,-0.073,52%,2.9,1.4,6.3,nt,nt
C=CCn1c(SCC(=O)Nc2sccc2C(N)=O)nc2sc(CC)cc2c1=O,-3.3,1134,i,i,15,-0.081,0.16,0.029,0.49,10%,4.3,2.9,2.9,0.08,818
Cc1cc(C)nc(/N=C(\N)Nc2ccc(F)c([N+](=O)[O-])c2)n1,nt,nt,i,i,0,-0.26,-0.2,-0.44,-0.39,-8%,1.7,1.8,3.6,nt,nt
O=C(CCCN1C(=O)C2C3C=CC(C3)C2C1=O)N1CCN(c2ccccc2)CC1 (centres undefined),nt,nt,nt,i,-9,-0.56,-0.19,-0.21,0.35,-11%,1.9,1.2,0.5,nt,nt
COc1ccc(-c2cc(N)n(S(=O)(=O)c3c(F)c(F)c(F)c(F)c3F)n2)cc1OC,-1.4,1444,i,i,6,-5.1*,2.6*,-2.3*,1.5*,-56%,6.1,2.2,6.8,-0.37,1341

# Ordered by the number under Dynein transport cell count (largest number first): 3 of the compounds above.
Molecule | Dynein transport cell count
Cc1cc(C(=O)N/N=C/c2cc(Br)ccc2OC(=O)c2ccccc2)n[nH]1 | 1.8
O=C(CCCN1C(=O)C2C3C=CC(C3)C2C1=O)N1CCN(c2ccccc2)CC1 (centres undefined) | 0.35
COc1ccc(S(=O)(=O)N2CCCN(CC(=O)Nc3ccc4c(c3)OCO4)CC2)cc1 | -2.4

# More entries follow:
SMILES,bCat nuc transl,bCat nuc transl cell count 5 µM,Yfh1-off respiration,Autophagy mod,Autophagy mod cell loss 18 h,Dynein transport,Dynein transport cytoplasmic EGFP,Dynein transport nuclear GR-EGFP,Dynein transport cell count,P. falciparum M17LAP,MT stabilize HCS,MT stabilize HCS Hoechst-high %,MT stabilize HCS cytotoxicity %,Ins promoter up,Ins promoter up cell count
CCOc1cc(C(=O)N2CCN=C2SC)cc(OCC)c1OCC,nt,nt,i,i,-2,-0.28,0.18,-0.32,-0.13,11%,3.8,2.1,6.8,-0.05,1254
COc1cccc(C(=O)Nc2nc(-c3ccccc3)c(-c3ccccc3)o2)c1,-0.7,963,i,i,16,-0.61,-0.01,-0.075,0.92,-6%,3.6,1.6,0.8,nt,nt
Cc1cc(Br)ccc1NC(=O)CNC(=O)Cn1ncc(Cl)c(Cl)c1=O,-2.3,1130,i,i,0,-1.1,-0.18,-0.43,0.32,-4%,2.8,1.4,6.0,1.7,1181
Cc1ccc(NC(=O)CSc2ncnc3ccccc23)cc1S(=O)(=O)N1CCOCC1,0.7,1201,i,nt,nt,-0.71,-0.14,-0.2,-0.2,-1%,nt,nt,nt,-0.24,1040

# High-throughput results: PubChem, several laboratories
